VDR inhibitor – blocks the human vitamin D receptor; P11473; VDR-SRC2-3 peptide fluorescence polarization, 2 h; Potency, µM, inactives show max response, negative = inhibition, actives largely listed as inhibitors; 400,000 compounds, 0.93% hits; AID 504847; active means well fitted inhibition curve with a large enough effect; inconclusive means small, poorly fitted or top-dose-only effect, or another doubt; inactive means no such curve, though single readings can be large or run the other way; further: series mostly up to about 120 µM
Target sequence (P11473 whole entry, looked up): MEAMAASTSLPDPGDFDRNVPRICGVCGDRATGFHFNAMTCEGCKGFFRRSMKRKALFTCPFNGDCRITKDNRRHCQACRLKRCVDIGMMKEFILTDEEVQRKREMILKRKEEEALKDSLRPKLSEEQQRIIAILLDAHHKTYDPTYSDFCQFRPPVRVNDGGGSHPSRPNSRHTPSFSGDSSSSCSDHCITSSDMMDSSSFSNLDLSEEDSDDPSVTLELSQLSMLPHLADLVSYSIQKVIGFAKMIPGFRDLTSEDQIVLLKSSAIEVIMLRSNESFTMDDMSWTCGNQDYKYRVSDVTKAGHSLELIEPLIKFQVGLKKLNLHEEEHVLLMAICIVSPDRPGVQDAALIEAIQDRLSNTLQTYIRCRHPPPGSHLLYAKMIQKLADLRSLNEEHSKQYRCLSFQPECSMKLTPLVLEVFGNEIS
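Reagent solutions, kept cold and dark, are dispensed first; compounds are then pinned in at 23 nl, plates briefly spun, and incubated 2 h at ambient temperature. Inhibition of VDR–SRC2-3 peptide binding is read by fluorescence polarization.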
* marks the source's active call; other numbers are inactive results; ? = inconclusive; & = joins results of further samples. On the % scale 0 is the no-effect control and ±100 the full control effect; potency means the concentration at half of the fitted maximal effect. Only part of the results is shown, so the mix of outcomes need not match the whole.

VDR inhibitor	SMILES
14%	COc1ccc(C(=O)c2c[nH]c(C(=O)NCc3cccs3)c2)cc1
12%	CCOC(=O)c1[nH]c2ccccc2c1NC(=O)c1ccc2c(c1)OCO2
-3%	Cc1ccc(S(=O)(=O)N[C@@H](Cc2ccccc2)C(=O)N2CCC(C(=O)N[C@@H](CC(C)C)C(=O)O)CC2)cc1
9%	CCN(CC)c1nc(-c2ccccc2)cc(C(F)(F)F)c1C#N
?	Cc1ccc(CNC(=O)C2CCC(=O)N(Cc3cccc(C(F)(F)F)c3)C2)o1 (stereo not drawn)
-10%	COC(=O)c1ccc(NC(=O)CO/N=C2\CCCc3nonc32)cc1
-12%	COc1cc(/C=C/C(=O)OCC(=O)NC(=O)NC(C)C)ccc1O
3%	CCOc1ccc(-n2cc(-c3ccccc3)c3c(N4CCOCC4)ncnc32)cc1

Among those listed so far, two contain a halogen.
VDR inhibitor	SMILES
9%	CCN(CC)c1nc(-c2ccccc2)cc(C(F)(F)F)c1C#N
?	Cc1ccc(CNC(=O)C2CCC(=O)N(Cc3cccc(C(F)(F)F)c3)C2)o1 (stereo not drawn)

Gathered by group, the compounds so far containing a CF3 group (two)
VDR inhibitor	SMILES
9%	CCN(CC)c1nc(-c2ccccc2)cc(C(F)(F)F)c1C#N
?	Cc1ccc(CNC(=O)C2CCC(=O)N(Cc3cccc(C(F)(F)F)c3)C2)o1 (stereo not drawn)

Next section:
VDR inhibitor	SMILES
-18%	CC(C)[C@H](NC(=O)c1ccccc1Cl)C(=O)Nc1nc(-c2ccccn2)cs1
-9%	C/C=C/Cn1c(SC)nc2c1c(=O)[nH]c(=O)n2C
-5%	CC(=O)N1CCN(c2ccc(NC(=O)c3ccc(F)cc3)cc2)CC1
1%	Cc1cc(C)cc(N(C(=O)c2ccc3c(c2)OCO3)C2C=CS(=O)(=O)C2)c1 (stereo not drawn)
-8%	S=C(NCc1ccco1)N/N=C/c1ccc(Cl)cc1
10%	CCc1nc(N2CCCCC2C(=O)O)c2oc3ccccc3c2n1 (stereo not drawn)
23%	O=C(NCCC1=CCCCC1)c1cc(COc2ccc(F)cc2Cl)on1
0%	C[C@@H]1CN([C@@H](C)CO)C(=O)c2cccc(NC(=O)C3CCCCC3)c2O[C@@H]1CN(C)C(=O)NC1CCCCC1

Look-ups from the results shown.
Result of Cc1cc(C)cc(N(C(=O)c2ccc3c(c2)OCO3)C2C=CS(=O)(=O)C2)c1 (stereo not drawn) under VDR inhibitor: 1%
Result of O=C(NCCC1=CCCCC1)c1cc(COc2ccc(F)cc2Cl)on1 under VDR inhibitor: 23%
Result of CCc1nc(N2CCCCC2C(=O)O)c2oc3ccccc3c2n1 (stereo not drawn) under VDR inhibitor: 10%

(cont.)
VDR inhibitor	SMILES
-25%	N#C/C(=C\c1ccc(/C=C(/C#N)c2nn(CCO)c(N)c2C#N)cc1)c1nn(CCO)c(N)c1C#N
11%	COc1cc(C(=O)OCC(=O)N2CC(C)OC(C)C2)cc(OC)c1OC (stereo not drawn)
4%	CC(C(=O)N1CCN(c2ccccc2)CC1)c1ccc([N+](=O)[O-])cc1 (stereo not drawn)
0%	Cc1ccc(S(=O)(=O)n2nc(-c3ccccc3)nc2NCc2ccccc2Cl)cc1
-17%	Cc1cccc(NS(=O)(=O)c2ccc3[nH]c(=O)oc3c2)c1C
4%	COc1ccc2cnn(-c3ccc(OC(F)(F)Cl)cc3)c(=O)c2c1OC
20%	COc1ccc(NC(=O)Cn2nnc(-c3nc(-c4ccncc4)no3)c2N)cc1OC
-29%	NS(=O)(=O)c1ccc(Nc2c([N+](=O)[O-])cncc2[N+](=O)[O-])cc1
-3%	CC(=O)N1CCc2ccc(N)cc21
-3%	CC1(C)CC(=O)C2=C(C1)Nc1ncnn1C2c1cccs1 (stereo not drawn)
-11%	C/C(=C\C(=O)c1ccc(Br)cc1)Nc1cccc(Cl)c1
3%	O=C(CCN1C(=O)/C(=C/c2ccc3c(c2)OCO3)SC1=S)NNC(=O)c1cccnc1
-8%	O=C(Oc1ccc(-c2ccccc2)cc1)c1ccco1
-28%	O=C(O)CCSc1nc2ccccc2s1
-13%	COc1cccc(C2=N/C(=C\N(C)C)C(=O)O2)c1
-8%	CC(NC(=O)c1nn(C)c(=O)c2ccccc12)c1ccc(F)cc1 (stereo not drawn)
18%	COc1cccc(-c2nnc3n(CCc4ccccc4)c(=O)c4ccccc4n23)c1O
4%	COCc1nnc(NC(=O)c2cccs2)s1
8%	CSCC[C@H](N)C(=O)N[C@@H](CCC(=O)O)C(=O)N[C@H](C(=O)NCC(=O)N[C@@H](Cc1c[nH]c2ccccc12)C(=O)N[C@@H](Cc1ccc(O)cc1)C(=O)N[C@@H](CCCNC(=N)N)C(=O)N[C@@H](CO)C(=O)N1CCC[C@H]1C(=O)N[C@@H](Cc1ccccc1)C(=O)N[C@@H](CO)C(=O)N[C@@H](CCCNC(=N)N)C(=O)N[C@H](C(=O)N[C@H](C(=O)N[C@@H](Cc1cnc[nH]1)C(=O)N[C@@H](CC(C)C)C(=O)N[C@@H](Cc1ccc(O)cc1)C(=O)N[C@@H](CCCNC(=N)N)C(=O)N[C@@H](CC(N)=O)C(=O)NCC(=O)N[C@@H](CCCCN)C(=O)O)C(C)C)C(C)C)C(C)C
-16%	CC(=O)OC1CCC2(O)CC1(C)CCC1C2CC1(C)C (stereo not drawn)
-29%	CC#CCN1c2ccccc2[C@]23C[C@@H](C(=O)OC)N(C(=O)C4CCC4)C2=NC(C(=O)OC)=C(C(=O)OC)[C@H]13
-5%	COc1ccc(N2CCN(CCCNC(=O)Cn3c(=O)c4cccn4c4ccccc43)CC2)cc1
-15%	CCC(C)(C)C1CCC2(CC1)NC(=O)N(CC(=O)NC(C)CCc1ccccc1)C2=O (stereo not drawn)
5%	CN(Cc1ccccc1)C(=O)c1c[nH]c2ccc(S(=O)(=O)Nc3ccccc3F)cc2c1=O
-6%	CCOc1ccc(S(=O)(=O)N2CCC(C(=O)NCc3cccnc3)CC2)cc1
-10%	N#CCCN(C1CCCCC1)S(=O)(=O)c1cccc2nsnc12
-6%	Oc1cccc(-c2nc3ccccc3s2)c1
2%	CCOC(=O)NC1(C(F)(F)F)NC(=O)N(c2cccc(C(F)(F)F)c2)C1=O (stereo not drawn)
13%	Cn1c(SCC(=O)Nc2ccc(Cl)cn2)nnc1C1CC1
-2%	CCCCCCCCNC(CO)(CO)CO
11%	CN(C)CCNC(=O)c1ccc(Sc2ccc(Br)cc2)c([N+](=O)[O-])c1
-2%	COc1ccc(-n2nnnc2CNC(=O)C2CC(=O)N(c3ccc(Cl)cc3)C2)cc1 (stereo not drawn)
-12%	O=C(CSc1ncnc2sccc12)N1CCCCC1
2%	COc1ccc(NC(=O)CSc2ncccc2C(=O)OC(C)C)cc1OC
-3%	O=C(Cc1cccs1)N/N=C/C(Br)=C/c1ccccc1
-19%&-1%	CN([C@@H](Cc1ccc(OS(=O)(=O)c2cccc3cnccc23)cc1)C(=O)N1CCN(c2ccccc2)CC1)S(=O)(=O)c1cccc2cnccc12
16%	Cc1ncc(S(=O)(=O)c2ccccc2)c(-c2ccc(Cl)cc2Cl)n1
9%	O=C(CN1CCC(n2nnc3cc(C(F)(F)F)ccc32)CC1)Nc1ccc2c(c1)OCCO2
-10%	Cc1ccccc1NC(=O)C1CC(Cl)=CCC1C(=O)O (stereo not drawn)
-6%	Cc1ccc(C)c(N2CCN(C(=O)c3ccc(NC(=O)c4nsc5ccccc45)cc3)CC2)c1
-4%	CC1SCC(NC(=O)c2cccc(Cl)c2)CS1 (stereo not drawn)
-8%	Cc1csc(NC(=O)CSc2nc(=O)[nH]c3c2CCCC3)n1
2%	Cc1ccc(CNC(=O)c2nn(-c3ccc(Cl)cc3)nc2CO)cc1
-7%	COCCn1c(SCC(=O)Nc2ccc(Cl)cn2)nnc1-c1ccncc1
7%	Cc1cc(C(=O)OCC(=O)N(C)c2c(N)n(Cc3ccccc3)c(=O)[nH]c2=O)c(C)n1-c1ccccc1
45µM*	Cc1ccc(C2CC(=O)N3CN(c4ccc(Br)cc4)CSC3=C2C#N)o1 (stereo not drawn)
-6%	COc1cc2sc(-c3ccccc3OC)c(-c3ccc(O)cc3)c2cc1OC
-7%	Cc1ccc(S(=O)(=O)C2CCOC2=O)cc1 (stereo not drawn)
4%	CC(/C=C/c1ccccc1)=N\Nc1ccccc1[N+](=O)[O-]
-14%	CCOc1ccc(C2CC(=O)Nc3cc4c(cc32)OCO4)cc1OC (stereo not drawn)
5%	COc1ccc(NC(=O)CN(C)C(=O)c2cc(S(=O)(=O)N(C)C)ccc2N2CCCC2)cc1
13%	Cc1cccc(C)c1NC(=O)Cn1nnc(C(=O)NCc2ccc(F)cc2)c1N
23%	COc1cccc(NC(=O)Nc2cc(-c3cn4cccnc4n3)ccc2OC)c1
-10%	CCNC(=O)N(C)c1nncnc1C(=O)NC
1%	CC1=NC(=O)C(N=Nc2ccccc2C(=O)O)N1c1ccccc1 (stereo not drawn)
-4%	CC(C)(C)NC(=O)C(c1ccncc1)N(C(=O)c1csnn1)C1CC1 (stereo not drawn)

Later entries.
VDR inhibitor	SMILES
-5%	N#Cc1c(-c2ccc(Br)cc2)nc2n(c1=O)CCCS2
-9%	CCC(=O)N(CCc1ccccc1C)Cc1cc2cc3c(cc2[nH]c1=O)OCO3
15%	Nc1nonc1-n1nnc(C(=O)N/N=C/c2cccc(F)c2)c1-c1ccc2c(c1)OCO2
11%	O=C(N/N=C/c1ccc(O)cc1O)c1ccc(NC(=O)C2CCCCC2)cc1
-11%	O=C(COC(=O)c1cccc(S(=O)(=O)N2CCN(c3ccc(F)cc3)CC2)c1)NCC1CCCO1 (stereo not drawn)
4%	Cc1cc(C)cc(NC(=O)CCNS(=O)(=O)c2ccc3c(c2)oc(=O)n3C)c1
-22%	COC(=O)c1ccc(NS(=O)(=O)c2ccc3c(c2)oc(=O)n3C)cc1
-3%	O=C(CSc1ccc(-c2ccc(-n3cccn3)cc2)nn1)Nc1ccccc1F

Looked up one by one from the list above:
VDR inhibitor	SMILES
-5%	N#Cc1c(-c2ccc(Br)cc2)nc2n(c1=O)CCCS2
11%	O=C(N/N=C/c1ccc(O)cc1O)c1ccc(NC(=O)C2CCCCC2)cc1
-11%	O=C(COC(=O)c1cccc(S(=O)(=O)N2CCN(c3ccc(F)cc3)CC2)c1)NCC1CCCO1 (stereo not drawn)
15%	Nc1nonc1-n1nnc(C(=O)N/N=C/c2cccc(F)c2)c1-c1ccc2c(c1)OCO2

Later entries.
VDR inhibitor	SMILES
1%	Cc1cc(C2C(C#N)=C(N)OC3=C2C(=O)CC(C)(C)C3)c(C)s1 (stereo not drawn)
14%	COc1ccc(-n2nc(C(=O)NCC(=O)NCC3CCCO3)c3ccccc3c2=O)cc1 (stereo not drawn)
7%	COc1ccc(-c2nc(CSCC(=O)NCc3ccc4c(c3)OCO4)c(C)o2)cc1OC
-26%	Cc1cc(Br)ccc1NC(=O)C1CCCN(S(=O)(=O)c2cccc3nonc23)C1 (stereo not drawn)
8%	O=C(CN1C(=O)NC2(CCCc3ccccc32)C1=O)Nc1cc(F)ccc1F (stereo not drawn)
-1%	C1CNCCOCCNCCN1
-11%	COc1ccc(CNC(=O)C(C#N)c2nc3ccccc3nc2N2CCCC2)cc1 (stereo not drawn)
1%	CCC1CCCCN1C(=O)CSc1nc2c(cnn2-c2ccc(C)cc2)c(=O)[nH]1 (stereo not drawn)
3%	COc1ccccc1CN(C)C(=O)c1ccc(S(=O)(=O)Nc2c(C)n(C)n(-c3ccccc3)c2=O)cc1
-12%	CC(=O)/C(=N\Nc1ccc(Cl)cc1Cl)Sc1nnc(-c2ccccc2)n1-c1ccccc1
3%	COc1ccc(-c2cnc(C)o2)cc1S(=O)(=O)Nc1ccc(F)cc1F
6%	O=C(NC1CCCC1)C(c1ccncc1)N(C(=O)Cc1cccs1)c1cccc(F)c1 (stereo not drawn)
-21%&-24%	CC/C=C\C/C=C\C/C=C\CCCCCCCCCC(=O)O
8%	NC(=O)CN1C(=O)NC2(CCOc3ccccc32)C1=O (stereo not drawn)
-22%	CC(C)CCNC(=O)COC(=O)/C=C/c1ccc2ccccc2n1
-11%	O=C(Nc1ccc(Br)cc1)C1CC(O)CN1C(=O)OCc1ccccc1 (stereo not drawn)
-5%	COc1ccc(CNC(=S)Nc2cccc(C)c2C)cc1
-5%&19%	COc1ccc(NC(=O)CN2C(=O)COc3ccc(S(=O)(=O)N4CCOCC4)cc32)cc1
-15%	COc1ccccc1C(=O)Nc1ccc(-c2nnn(CC(=O)NCc3ccco3)n2)cc1
-11%	Cc1cc(C)c(C(=O)CN2C(=O)C(=O)N(C3CCCC3)C2=O)cc1C
-8%	CCOC(=O)C1CCCN(C(=O)c2ccc3ncsc3c2)C1 (stereo not drawn)
5%	COc1ccc(NC(=O)c2ccc(CN3CCc4ccccc4C3)cc2)cc1OC
-20%	O/C=c1\ccc2cccc3nc(C(F)(F)F)nc1c23
-8%	COc1ccc(CNC(=S)Nc2ccccc2F)cc1
-10%	CCn1c(=O)c2sccc2n2c(CCCC(=O)NCCc3ccc(S(N)(=O)=O)cc3)nnc12
-6%	Nc1ccccc1Nc1cc(-c2ccccc2)nn1-c1ccccc1
-18%	COc1ccc(/C=N/N=C2/NC(=O)C(CC(=O)O)S2)cc1OCc1ccccc1Cl (stereo not drawn)
3%	CN(C(=O)CSc1nnc(C2CC2)n1-c1ccccc1)C1CCS(=O)(=O)C1 (stereo not drawn)
-12%	CCc1cc2c(SCC(=O)NCC3CCCO3)ncnc2s1 (stereo not drawn)
-13%	O=S(=O)(c1ccccc1)[C@@]1(c2ccccc2)C[C@@H]2ON=C(c3cccc(-c4ccccc4)c3)[C@@H]2C1
-16%	CCC(=O)NC(=S)Nc1cccc(NC(=O)c2ccco2)c1
-5%	O=C(NC1CCCCC1)N1CCc2[nH]c3ccccc3c2C1
